From PubChem BioAssay
Autofluor counter: flagged as autofluorescent in microsphere protease counterscreen. hit rate 3.1% among 360,000. fluorescence intensity (test concentration not listed). compound autofluorescence counterscreen, microsphere flow cytometry; hits give high values;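 active = at least 3 SD above the mean of all compounds, about 16000 in these data; inconclusive = too few beads counted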;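 note: 100 nL of 1 mM stock went into each well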
ugtP null kill: compounds lethal to S. aureus RN4220 ugtP deletion mutant | OD600 growth, 16 h; some inactives read as strong as hits | growth inhibition, % (test concentration not listed) | hit rate 0.54% among 330,000;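 active = z-score under -3 and OD600 up to 0.15 on both plates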;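 note: plate controls were untreated wells for no effect and antibiotic for full effect; wells of about 80 µL received 100 nL stock; the first replicate is given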
PrP UTR inh: inhibition of PrP 5' UTR reporter expression. hit rate 0.35% among 340,000. AID 488862. inhibition, % (concentration not given with the values). cell-based PrP 5' UTR mRNA reporter, plate reader;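 active = every replicate at 50% or more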;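 note: 0 = median of the neutral control wells; tested in H4 reporter cells; numbers are from one replicate; inactives centre near -14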
BJeLR viability: BJeLR cell viability loss. BJeLR (HRASV12) viability, CellTiter-Glo ATP luminescence, 48 h; reference of the scale not given here. inhibition, % (test concentration not listed). hit rate 0.17% among 300,000. AID 1554;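 active = replicate mean above 50%; inconclusive = above 50% but judged a plate artefact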;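 note: 50 nL library stock added to about 25 µL; numbers are from one replicate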
Mtb hypoxia rep: Mtb hypoxia fluorescent reporter inhibition | M. tuberculosis hypoxia-regulated fluorescent reporter, fluorescence | fluorescence inhibition, % (concentration not given with the values) | hit rate 0.1% among 300,000 | AID 1159583;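 active = 35 to 45% if threefold the growth effect, above 45% if 1.5-fold the growth effect; inactive = the rest, general growth blockers included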;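 note: wells of about 50 µL received 100 nL stock; 0% = vehicle wells and 100% = reference inhibitor wells; whole bacteria with a GFP reporter of the hypoxia response; strong numbers were not always called active; many hits fall short of the cut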
Sa RN4220 lethal: S. aureus RN4220 growth inhibition | OD600, 16 h | inhibition, % (test concentration not listed) | hit rate 0.33% among 330,000 | AID 1259311;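 active = z-score of -3 or lower and OD600 up to 0.18 on both plates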;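 note: plate controls were untreated cells for no effect and reference antibiotic for full effect; stock transfer was 100 nL into about 80 µL; one replicate is shown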
Mtb hypoxia rep growth: recorded beside Mtb hypoxia rep, whose call it bears; growth inhibition, %; measured here: M. tuberculosis growth (absorbance);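 0% = vehicle and 100% = reference antibiotic; read after six days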
* = called active by the depositor; u = inconclusive; x = no result given.

SMILES	Autofluor counter	ugtP null kill	PrP UTR inh	BJeLR viability	Mtb hypoxia rep	Mtb hypoxia rep growth	Sa RN4220 lethal
CC(C)C1Cc2c(sc3ncnc(NN)c23)CO1 (configuration not stated)	3274	13	-11	-9	11	4	0.8
COc1ccc(CN(CCCN2CCOCC2)S(=O)(=O)N(C)C)cc1OC	3466	5	-7	-3	x	x	9.5
CC(C)(C)NC(=O)C1Cc2ccccc2CN1C(=O)Nc1cccc(Cl)c1 (configuration not stated)	2516	-6	-2	2	-1	8	0.0
COc1cc2c(cc1O)CCC1C2CC[C@]2(C)C(O)CCC12 (some centres not stated)	x	-2	x	x	2	3	5.9
COC(=O)CCCCC1SCC(NC(=O)c2ccccc2)C1OC(C)=O (configuration not stated)	3439	3	-12	2	0	-3	8.4
CCOc1ccc(C=NNC(=S)NC2CC3CCC2C3)cc1 (configuration not stated)	x	7	x	x	-11	-4	9.1
COC(=O)CN(c1ccc(OC)cc1OC)S(=O)(=O)c1ccccc1[N+](=O)[O-]	4660	5	-20	-7	12	8	12
Cc1nnc(SCC(=O)Nc2ccc(S(=O)(=O)Nc3ccc(Cl)nn3)cc2)s1	5343	4	-21	x	7	7	2.7
CC1CCN(CCCNC(=O)CCNC(=O)Cn2cnc3ccccc3c2=O)CC1	5546	8	-11	3	-7	-1	4.0
CN1C(=O)/C(=C/c2ccccc2OCc2ccc(C(=O)O)cc2)NC1=S	3458	1	-1	-3	3	7	0.1
CCCOc1ccc(CC(=O)NCCc2ccccc2)cc1OC	3263	2	-49	-7	-3	8	-1.7
CCCOc1ccc(/C=C/c2[nH]c(=O)[nH]c(=O)c2[N+](=O)[O-])cc1OCC	3588	5	-9	1	9	2	0.1
Cc1cc(C(=O)NNC(=O)/C=C/c2ccccc2Cl)c(C)o1	5781	-2	-20	-9	-1	-1	4.8
CCC1CCC2(CC1)NC(=O)N(CC(=O)Nc1ccc(OC)c(Cl)c1)C2=O (configuration not stated)	7980	5	-25	x	6	5	1.9
CC(=O)N1CCN(C(=O)c2ccc(Cl)c(S(=O)(=O)N3CCc4ccccc43)c2)CC1	5772	10	-15	x	4	0	6.4
CC(C)(C)c1ccc(Oc2cccc(C3CC(=O)C(C4NCCc5ccccc54)C(=O)C3n3cncn3)c2)cc1 (configuration not stated)	4734	2	-9	-4	x	x	3.3
CC(NC(=O)COC(=O)c1cn(-c2ccccc2)nc1-c1cccs1)c1ccccc1 (configuration not stated)	18189*	-8	-33	-13	4	6	12
Cc1ccc(C2C3CSCC=C3C(C#N)=C(N)C2(C#N)C#N)cc1 (configuration not stated)	9481	-28	-9	7	2	-6	18
O=C(COC(=O)c1cncc(Br)c1)NC1CCCC1	4398	6	-19	2	1	3	17
CCOc1ccccc1C1c2[nH]c3ccccc3c2C[C@H]2C(=O)N(C3CCN(Cc4ccccc4)CC3)CC(=O)N12 (some centres not stated)	3123	6	-19	-5	8	8	-7.6
Cc1ccc(-c2cc(C(=O)N3CCN(C(=O)c4ccco4)CC3)no2)cc1	20055*	0	-12	-7	2	3	4.3
CCOC(=O)C1=C(C)Nc2ncnn2C1c1cccs1 (configuration not stated)	6491	-1	-10	-20	0	2	2.8
O=C1c2cccnc2C(Nc2cccc(F)c2)N1Cc1ccco1 (configuration not stated)	2097	2	-15	10	-6	7	2.8
Cc1ccc(NC(=O)COC(=O)C2CC2)c(Br)c1	8196	-3	-21	5	11	15	4.4
Cc1ccc(NC(=O)COC(=O)CN2C(=O)NC3(CCCC3)C2=O)cc1Cl	3923	2	-12	x	-4	1	12
Cc1nc(N2CCC(C)CC2)c2c(C)c(C(=O)Nc3cccc(C(F)(F)F)c3)sc2n1	2024	-17	0	-2	9	-1	4.5
O=C(COc1ccc(Cl)cc1)NCCNC(=O)c1cnccn1	3040	3	3	0	12	2	3.1
Nc1cc(C(=O)OCC(=O)NCCC2=CCCCC2)ccc1Cl	3587	0	-8	x	7	3	2.7
Cc1ccc(S(=O)(=O)N2CCOCC2)cc1C(=O)NC(=S)N1CC(C)CC(C)C1 (configuration not stated)	5147	5	-29	-1	-1	3	1.1
COc1ccc(NC(=O)NC2(C(=O)N3CCCC3)CCCCC2)cc1	5773	6	-10	2	1	-3	4.1

An excerpt of these results, as comma-separated lines:
Structure,Autofluor counter,ugtP null kill,PrP UTR inh,BJeLR viability,Mtb hypoxia rep,Mtb hypoxia rep growth,Sa RN4220 lethal
CCOC(=O)C1=C(C)Nc2ncnn2C1c1cccs1 (configuration not stated),6491,-1,-10,-20,0,2,2.8
O=C1c2cccnc2C(Nc2cccc(F)c2)N1Cc1ccco1 (configuration not stated),2097,2,-15,10,-6,7,2.8

Remaining list, next part.
SMILES	Autofluor counter	ugtP null kill	PrP UTR inh	BJeLR viability	Mtb hypoxia rep	Mtb hypoxia rep growth	Sa RN4220 lethal
CC(C)Cn1nc(C(=O)N2CCc3ccccc32)c2ccccc2c1=O	u	2	-13	x	4	-8	0.6
CCn1c(SCC(=O)N2c3ccccc3Sc3ccccc32)nnc1-c1ccco1	4534	4	-22	-8	10	10	-0.5
CCOc1ccc(C2CC(c3cccc(OC)c3OC)n3nnnc3N2)cc1Cl (configuration not stated)	2959	7	-21	-10	11	10	0.6
O=C(COC(=O)COc1ccc(Cl)cc1Br)NCc1cccs1	4465	3	-13	-6	7	3	7.7
COc1cc(Cl)c(C)cc1N1C(=O)CN(Cc2ccccc2)C1=S	3640	4	-12	1	7	8	4.8
CC(C)CC(=O)NC(=S)Nc1ccccc1C(F)(F)F	2549	71	-12	0	3	4	1.4
Cc1cc(NC(=O)CCC(=O)N(Cc2cccs2)C(C(=O)NC2CCCC2)c2ccncc2)no1 (configuration not stated)	4549	2	1	1	x	x	1.6
Cc1ccc(S(=O)(=O)NCc2ccccc2)s1	3619	0	-7	-4	-8	4	4.7
CCN(CC(=O)Nc1ccccc1OC)C(=O)CCOc1ccc(C(C)(C)C)cc1	6455	-8	-10	12	0	-8	-4.2
Cn1nc(C(F)(F)F)c(/C=N/OC(=O)c2ccc(Cl)cc2)c1Cl	5777	x	-23	-4	x	x	x
O=C1N=C(N2CCc3ccccc3C2)S/C1=C\c1cccc(O)c1	2512	-11	-20	0	1	7	21
O=C(NC1CCCCCCC1)C1c2ccccc2C(=O)N1Cc1ccco1 (configuration not stated)	9541	5	-23	7	7	9	2.1
CC1CCN(C(=O)CCC(=O)N2CC(C)Oc3ccccc32)CC1 (configuration not stated)	5078	5	-17	1	8	0	6.8
Cc1ccc(C(=O)NCCCN2CCOCC2)cc1S(=O)(=O)N1CCCCC1	u	8	-8	x	2	4	1.6
COc1ccc(CN(C(=O)CSc2nnc(-c3ccc(OC)c(OC)c3)o2)c2ccc(F)cc2)cc1	5102	-28	-10	12	-6	5	-4.3
Cc1oc(-c2ccccc2Cl)nc1CSCC(=O)N1CCCC1	22629*	5	-4	20	3	4	5.4
CCOC(=O)C(C(=O)OCC)C(C#N)c1ccccc1 (configuration not stated)	2944	4	0	3	x	x	4.5
O=C(C1CCCC1)N1CCN(S(=O)(=O)c2ccc(F)c(F)c2F)CC1	3168	5	-13	3	5	1	0.8
COc1ccccc1C(=O)Nc1ccc2c(c1)OCCO2	2748	-5	-116	2	x	x	-4.2
Cc1cc(C)cc(OCC(=O)NNC(=O)c2ccccn2)c1	3684	-4	-5	x	-4	-1	2.9
CC1(C(=O)N2CCN(C(=O)c3ccco3)CC2)CC1(Br)Br (configuration not stated)	5943	5	-22	-8	-3	1	1.5
CC(=O)Nc1c(C(=O)Nc2ccc3c(c2)OCO3)oc2ccccc12	4239	x	-84	-7	x	x	x
COc1ccc([C@H]2/C=C\CN(S(C)(=O)=O)[C@@H](C)C(=O)N2Cc2ccc(F)cc2)cc1	4492	x	-20	7	x	x	x
COc1ccc(C2=NN(C(=O)CCC(=O)O)C(c3ccc(F)cc3)C2)cc1 (configuration not stated)	4122	x	-25	3	x	x	x
COc1ccc(-c2csc3ncnc(Oc4ccc5c(C)cc(=O)oc5c4)c23)cc1	2231	3	-20	-4	-5	7	3.7
Cc1cccc2cc(CN(Cc3ccc(F)cc3)Cc3nnnn3C3CCCC3)c(=O)[nH]c12	11469	-11	-26	-1	5	9	6.4
O=C(/C=C/c1cccc([N+](=O)[O-])c1)NCCSCc1c(Cl)cccc1Cl	8001	-22	-8	9	-1	5	-5.5
CCN(CC)CCNC(=O)c1cn(CC)c2cc(N3CCN(C(=O)c4ccco4)CC3)c(F)cc2c1=O	5711	52	-14	-2	2	-3	18
O=S(=O)(Nc1ccc(-c2nc3cccnc3s2)cc1)c1cc(F)ccc1F	4966	x	-44	-7	x	x	x
Cc1ccc(C)c(S(=O)(=O)N2CCN(C(=O)c3ccc(OCc4c(C)noc4C)cc3)CC2)c1	7402	1	-7	1	-16	3	-2.1

Molecules above with a COOH group, in the order listed:
SMILES	Autofluor counter	ugtP null kill	PrP UTR inh	BJeLR viability	Mtb hypoxia rep	Mtb hypoxia rep growth	Sa RN4220 lethal
CN1C(=O)/C(=C/c2ccccc2OCc2ccc(C(=O)O)cc2)NC1=S	3458	1	-1	-3	3	7	0.1
COc1ccc(C2=NN(C(=O)CCC(=O)O)C(c3ccc(F)cc3)C2)cc1 (configuration not stated)	4122	x	-25	3	x	x	x

Not a retest: entries from further up.
SMILES	Autofluor counter	ugtP null kill	PrP UTR inh	BJeLR viability	Mtb hypoxia rep	Mtb hypoxia rep growth	Sa RN4220 lethal
O=C(/C=C/c1cccc([N+](=O)[O-])c1)NCCSCc1c(Cl)cccc1Cl	8001	-22	-8	9	-1	5	-5.5
CCN(CC)CCNC(=O)c1cn(CC)c2cc(N3CCN(C(=O)c4ccco4)CC3)c(F)cc2c1=O	5711	52	-14	-2	2	-3	18
O=S(=O)(Nc1ccc(-c2nc3cccnc3s2)cc1)c1cc(F)ccc1F	4966	x	-44	-7	x	x	x
Cc1ccc(C)c(S(=O)(=O)N2CCN(C(=O)c3ccc(OCc4c(C)noc4C)cc3)CC2)c1	7402	1	-7	1	-16	3	-2.1

(cont.)
SMILES	Autofluor counter	ugtP null kill	PrP UTR inh	BJeLR viability	Mtb hypoxia rep	Mtb hypoxia rep growth	Sa RN4220 lethal
Cc1coc2c1c(C)cc1oc(=O)c(CC(=O)N[C@H](C(=O)O)C(C)C)c(C)c12	3530	10	-17	-3	-5	-1	5.2
CN1CCc2c(c3ccccc3n2C)C1	3339	-3	-14	-1	12	4	3.6
COc1ccc(C2=NN(C(=O)CCC(=O)O)C(c3ccccc3F)C2)cc1 (configuration not stated)	3795	3	-27	0	7	12	-2.9
COc1ccccc1NC(=O)CCC(=O)OCc1ccc(Br)cc1	4542	1	12	-1	3	-2	4.8

Compounds from the list above that contain a tert-butyl group:
SMILES	Autofluor counter	ugtP null kill	PrP UTR inh	BJeLR viability	Mtb hypoxia rep	Mtb hypoxia rep growth	Sa RN4220 lethal
CC(C)(C)NC(=O)C1Cc2ccccc2CN1C(=O)Nc1cccc(Cl)c1 (configuration not stated)	2516	-6	-2	2	-1	8	0.0
CC(C)(C)c1ccc(Oc2cccc(C3CC(=O)C(C4NCCc5ccccc54)C(=O)C3n3cncn3)c2)cc1 (configuration not stated)	4734	2	-9	-4	x	x	3.3
CCN(CC(=O)Nc1ccccc1OC)C(=O)CCOc1ccc(C(C)(C)C)cc1	6455	-8	-10	12	0	-8	-4.2
